# Biofilm kill mix = mixture kills Candida albicans biofilm cells | inhibition, % at 7.6 µM | C. albicans biofilm persisters + clotrimazole, fluorescence viability; primary screen in compound mixtures of four per well | 120,000 compounds, 0.02% hits | AID 1242;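 active = inhibition above 30.3% in the primary screen of four-compound pools, then above 30% when the compound was retested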;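 also: compounds exposed to preformed 24 h biofilms for 48 h; the number belongs to the whole pool; some results filed as inactive read as strong as hits; inactives centre near 12; 0% = biofilm with clotrimazole alone and 100% = kill control; retested singly at about 60 µM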
#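 Test system: C. albicans CAF4-2 wild-type biofilms; buffer or medium: RPMI/MOPS medium, pH 7.0; schedule: 24 h biofilm formation, then 48 h compound exposure, 37 °C; detection: Alamar Blue fluorescence; measure: percent inhibition of biofilm viability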
# * = called active by the depositor. A portion of the library. The share of hits here may be higher or lower than overall.
SMILES,Biofilm kill mix
COc1nn(CC(=O)N2N=C(C)CC2(O)C(F)(F)F)cc1[N+](=O)[O-] (stereo not given),13
Cc1ccccc1/C=N/NC(=O)Cc1ccc(Cl)cc1,18
Cc1ccc(CSCCNC(=O)CN(c2ccccc2)S(C)(=O)=O)cc1,7
Cc1ccc(NC(=O)Cn2cc(S(=O)(=O)c3ccc(C)cc3)c(=O)c3cc(F)ccc32)cc1,3
CC(=O)N1N=C2c3ccccc3CCC2C1c1ccc(F)cc1 (stereo not given),25
CC(C)Cn1c2c(c(=O)[nH]c1=O)C(C(F)(F)F)(C(F)(F)F)N=C(CCC1CCCCC1)N2,8
CCC12CN3CCN(CC(C3)/C1=N\NC(=O)c1ccc(C(C)(C)C)cc1)C2,14
CCOC(=O)c1ccc(-c2ccc(/C=N/NC(=O)c3cncc(Br)c3)o2)cc1,8
CC(C)CCNc1nc2ccccc2nc1NS(=O)(=O)c1cccs1,21
Cc1cc(C)nc(NS(=O)(=O)c2ccc(N3C(=O)c4ccccc4C3=O)cc2)n1,10
O=C(c1ccc(Cl)cc1)c1c[nH]c(C(=O)NNc2cccc(Cl)n2)c1,18
O=C(N1CCN(c2ccccc2F)CC1)C1(c2cccs2)CCOCC1,-5
C/C(=N\NC(=O)c1cccc(S(=O)(=O)N2CCCC2)c1)c1cccs1,1
O=C(Oc1ccc(C(=S)N2CCCCC2)cc1)c1ccccc1,4
CN(CCOC(=O)c1cccc(F)c1)Cc1ccccc1,15
O=C(c1ccccc1F)N1CCN(c2ccc([N+](=O)[O-])c(NCc3cccnc3)c2)CC1,5
CNC(=O)COC(=O)c1ccc(OCC(=O)Nc2ccccc2OC)c(OC)c1,12
CSc1ccc(C(=O)NCC(=O)O)cc1[N+](=O)[O-],22
Cc1ccc(S(=O)(=O)N2CCN=C2SCc2ccccc2)cc1,12
CCOc1cc(/C=N/NC(=O)CCCC(=O)NC2CCCCC2)ccc1O,10
COc1cccc(/C(C)=N/NC(=O)Cc2c(C)[nH][nH]c2=O)c1,12
Cc1ccc(NC2SC(=O)N(Cc3cccc(C(=O)O)c3)C2=O)c(C)c1 (stereo not given),17
COc1ccc(C(=O)N/N=C/c2ccccc2C(=O)O)cc1OC,5
COc1ccc(C2c3c(-c4ccccc4)n[nH]c3C(=O)N2c2ccc(C(=O)O)cc2)cc1 (stereo not given),17
CCCC(O)(CCN1CCOCC1)c1ccc(Cl)cc1 (stereo not given),2
Cc1cc(NC(=O)c2ccccc2)n(-c2ccccc2)n1,20
O=C(O)CCNC(=O)/C(=C/C=C/c1ccccc1)NC(=O)c1ccccc1,12
Cc1cc(N)n(-c2ccccn2)n1,27
C/C(=N\Nc1cccc2cccnc12)c1ccccc1O,-1
COc1ccc(NS(=O)(=O)c2ccc(N3CCOCC3)c(NC(=O)c3ccccc3Cl)c2)cc1,4
CCn1c(SCC(=O)Nc2cccc(C)c2)nc2nc3c(cc2c1=O)COC(C)(C)C3,18
CCCSc1nc2cc(C)c(C)cc2n1CC(C)O (stereo not given),21
CCOC(=O)Cc1cc(=O)[nH]c(/N=C(\N)Nc2ccc(C)c(C)c2)n1,15
CCNC(=S)Nc1sc2c(c1C#N)CCC(C)C2 (stereo not given),1
O=C(/C=C/c1ccc(O)cc1)c1c(O)cc(O)cc1O,13
COCCNC(=O)CN(C(=O)Cn1nnc2ccccc21)c1ccc(C)c(F)c1,13
CCC1(C(=O)OC)NC(c2cccc(F)c2)C2C(=O)N(C)C(=O)C21 (stereo not given),12
Cc1cc(C(=O)OCC(=O)Nc2c(F)cccc2F)c(C)n1-c1ccccc1,34
Cc1cc(C(=O)NCc2cc(F)cc3c2OCOC3)nn1C,16
O=C(NCCCn1ccnc1)/C(=C/c1cccnc1)NC(=O)c1ccco1,20
Cc1ccc(C(=O)NC(=S)NNC(=O)c2ccccc2[N+](=O)[O-])cc1,7
CCOC(=O)c1ccc(NC(=O)CN2C(=O)C(C)SC(C)C2=O)cc1 (stereo not given),22
O=C1C2C3C=CC(CC3)C2C(=O)N1/N=C/c1c[nH]c2ccccc12 (stereo not given),2
CCOc1ccc(OCC(=O)OCn2c(SC)nnc(C)c2=O)cc1,11
Cc1cc(/C=C2\Sc3ccccc3N2C)cc(C)[n+]1CC1CCCO1 (stereo not given),29
CCOc1ccc(C(=O)N2CCN(c3cnn(-c4ccccc4)c(=O)c3Cl)CC2)cc1,9
CC1CCC(C(C)C)C(OCC(O)CNC(C)C)C1 (stereo not given),25
O=C(/C=C\c1ccco1)Nc1ccc(N2CCN(C(=O)c3ccccc3)CC2)cc1,11
COc1ccc(Cl)cc1Nc1cc(C)nc2nc(C)nn12,5
N#Cc1c(-c2cccc(Cl)c2)[nH]c(=S)[nH]c1=O,14
CC(=O)Oc1ccc2c(c1)O/C(=C\c1ccncc1)C2=O,13
CCOC(=O)C1=C(C)OC(N)=C(C#N)C1c1ccc(C)s1 (stereo not given),8
Cc1cccc(N2CCN(C(=O)C3CCN(S(=O)(=O)N4CCOCC4)CC3)CC2C)c1 (stereo not given),4
Cc1cc(=O)oc(C)c1C(=O)NC1CC(C)(C)NC(C)(C)C1,18
Cc1ccc(S(=O)(=O)N2CCC(=O)N(CCOC(=O)Nc3ccc(F)cc3)CC2)cc1,-3
NNC(=O)CCN1CCN(Cc2ccccc2)CC1,18
O=C(CN1CCOCC1)NNC(=S)Nc1ccc(Cl)cc1,16
CCNC(=O)Nc1ccccc1C(=O)OC,12
CC#CC(=O)N1CCC(CCc2ccccc2)(C(=O)OCC)CC1,12
Cc1cc([N+](=O)[O-])nn1CCCC(=O)Nc1cccnc1Cl,4

# Additional compounds.
SMILES,Biofilm kill mix
O=C(CC(c1ccc(F)cc1)c1ccco1)Nc1nccs1 (stereo not given),19
CC(C)(NC(=O)c1cc(Cl)c2ccccc2c1O)C(=O)O,33
CC(=O)C1=C(O)CCCC1=NCc1nc2ccccc2[nH]1,14
COCCn1c(-c2ccc(Cl)cc2)cnc1SCC(=O)NCCc1ccc(OC)c(OC)c1,10
CCCN1CCC(=O)N([C@H](CSc2ccc(C)cc2)Cc2ccccc2)CC1,12
Cc1ccc2cc(CN(C(=O)c3ccco3)c3cccc(C)c3C)c(=O)[nH]c2c1,25
CCNC(=S)N(CCN(C)C)Cc1cc2cc(OCC)ccc2[nH]c1=O,5
CCNc1nc(NCC)nc(N/N=C/c2ccc(O)c(O)c2)n1,13
CC(Oc1ccc([N+](=O)[O-])cc1Cl)C(=O)Nc1ccc(C(N)=O)cc1 (stereo not given),13
Cc1ccc(C2=NN(S(C)(=O)=O)C(c3ccc4c(c3)OCO4)C2)cc1 (stereo not given),12
Clc1ccc2c(N/N=C/c3cccnc3)ccnc2c1,5
O=C(Nc1cc(Cl)ccc1Cl)N1CCCC1,0
O=C(NNC(=O)C1CCN(S(=O)(=O)c2ccc(Cl)cc2)CC1)c1ccc(S(=O)(=O)N2CCCCC2)cc1,12
COc1ccc(NC(=O)c2ccccc2SC)cc1,4
O=C(NCC1CCCO1)C(c1ccc(F)cc1)N(CC1CCCO1)C(=O)c1ccc(-c2ccccc2)[nH]1 (stereo not given),3
CCOc1ccc(C(=O)c2ccc([N+](=O)[O-])cc2Cl)cc1,20
CC1(C)CC(=O)C(C(N)=NC(=O)c2ccccc2)=C(O)C1,14
CC(C)c1ccc(NC(=S)NN(c2ccccc2)c2ccccc2)cc1,8
COC(=O)CC1=NN(c2nc(C)cc(C)n2)C(=O)C1,17
CCOc1ccc(Br)cc1S(=O)(=O)NC(=O)c1ccccc1,15
CCN=C(NCC)SC1CC(=O)N(c2ccc(F)cc2)C1=O (stereo not given),16
CC1=NN(C(=O)Cc2ccc([N+](=O)[O-])cc2)C(O)(C(F)(F)C(F)(F)F)C1 (stereo not given),10
CC(C)CNC(=S)N1CCN(c2nc3ccccc3s2)CC1,15
Cc1nc2ccc(NC(=O)c3ccco3)cc2nc1C,-5
N#CC1=C(N)Oc2c(O)cc3ccccc3c2C1c1ccsc1 (stereo not given),24
COc1ccc2c(c1)NC(C)(C)C=C2C,14
CCN(CC)S(=O)(=O)c1ccc(OC)c(NC(=S)Nc2cccc(C)c2)c1,7
CC1CC1C(=O)OCC(=O)Nc1ccccc1Oc1ccccc1 (stereo not given),12
Cc1ccc(N2NC(=O)/C(=C/c3ccc(-c4ccc(Cl)c(C(=O)O)c4)o3)C2=O)cc1,11
Cc1ccc(-c2cc(C(F)F)n3ncc(C(=O)N4CCCCC4c4cccnc4)c3n2)cc1 (stereo not given),12
C[C@@H]1NC(=O)[C@H](CC(N)=O)NC(=O)c2cc([N+](=O)[O-])cc(I)c2OCC[C@@H](C(=O)NC(CC(=O)O)C(N)=O)NC1=O (stereo not given in full),14
CC(=O)NNC(=S)NC(=O)C(c1ccccc1)c1ccccc1,-1
CC(C)(C)c1ccc(NC(=O)CSc2nnc(-c3n[nH]c4ccccc34)o2)cc1,4
O=C(COC(=O)C1(c2ccccc2F)CCCC1)NCc1cccs1,24
CC(=O)Nc1ccc(S(=O)(=O)Nc2nccc(/C=C/c3ccccc3F)n2)cc1,25
Cc1ccc(S(=O)(=O)N2CCOCC2)cc1NC(=O)COC(=O)c1ccc2c(c1)OCO2,-2
CCOC(=O)c1c(C)[nH]c(C(=O)COC(=O)/C=C/c2ccc(OCC#N)c(OC)c2)c1C,11
COc1ccc(Cc2nnc(N/N=C(\C)c3ccccc3)[nH]c2=O)cc1OC,18
CCOC(=O)c1c(NC(=O)COC)sc(C)c1C,7
O=C(c1ccc([N+](=O)[O-])cc1)N1CCN(c2cccc3[nH]ccc23)CC1,17
COc1cc(/C=N/NC(=O)c2ccoc2C)ccc1O,8
CCNc1ccccc1C(=O)O,18
COC(=O)Nc1nc(-c2cc(Cl)ccc2Cl)cs1,16
COc1cccc(/C=N/N2CCOCC2)c1O,13
C=CCO/N=C(\C)c1c(O)c(C)c(-c2ccccc2)n(-c2ccccc2)c1=O,17
COc1ccc(Cl)cc1NC(=S)NNC(=O)C1(C)CC1(Cl)Cl (stereo not given),9
O=C(CN1C(=O)C2CC=CCC2C1=O)NCC(=O)Nc1ccc(F)c(F)c1F (stereo not given),6
O=C(COc1ncnc2sccc12)NC1CCCc2ccccc21 (stereo not given),18
Nc1nc(=S)c2ncn(C3OC(CO)C(O)C3O)c2[nH]1 (stereo not given),16
Cc1ccc(NC(=O)COC(=O)C(CC(C)C)N2C(=O)C3CC=CCC3C2=O)c(C)c1 (stereo not given),21
O=C(CCNS(=O)(=O)c1ccc(Br)s1)NCc1ccc(F)cc1,18
O=C(COC(=O)c1ccc[nH]c1=O)NCCc1ccc(F)cc1,8
O=C(/C=C/c1c(Cl)cccc1Cl)NCc1ccco1,4
O=C(Nc1ccccc1F)NC1CC1,8
O=C(CCCCCCCC(=O)c1ccccc1)c1ccccc1,24
CN(C)c1ccc(C(=O)/C=C/c2ccc(Br)cc2)cc1,-8
COc1cc(NC(=O)C(=O)NNC(=O)C2CCCCC2)c(OC)cc1Cl,11
CCn1ccc(C(=O)Nc2ccccc2Cl)n1,22
CC(C)CC(C(=O)OCC(=O)c1c(N)n(C)c(=O)n(C)c1=O)N1C(=O)c2ccccc2C1=O (stereo not given),12
O=C(CC(=O)c1ccccc1)Nc1cc(C(F)(F)F)ccc1Cl,12

# Next section:
SMILES,Biofilm kill mix
Nc1cc(=O)[nH]n1C1CCCC1,7
O=C(Nc1n[nH]c(C(F)(F)F)n1)C1CC1,13
CCCC(C(=O)O)n1c(O)c(C=C2N=c3ccccc3=N2)sc1=S (stereo not given),29
Cn1nccc1C(=O)Nc1ccc2c(c1)OCCO2,-9
COc1ccc(C(=O)NNC2=NC(C)(C)Cc3ccccc32)cc1,-11
CCCCn1cnc2c(c(-c3ccccc3)c(-c3ccccc3)n2Cc2ccco2)c1=N,18
Cc1csc(SCc2nc3scc(-c4ccccc4)c3c(=O)[nH]2)n1,21
O=[N+]([O-])c1cc(/C=N/n2c(-c3cccnc3)n[nH]c2=S)ccc1Cl,-7

# In the list so far, 18 have an aryl methoxy group:
SMILES,Biofilm kill mix
COc1nn(CC(=O)N2N=C(C)CC2(O)C(F)(F)F)cc1[N+](=O)[O-] (stereo not given),13
CNC(=O)COC(=O)c1ccc(OCC(=O)Nc2ccccc2OC)c(OC)c1,12
COc1cccc(/C(C)=N/NC(=O)Cc2c(C)[nH][nH]c2=O)c1,12
COc1ccc(C(=O)N/N=C/c2ccccc2C(=O)O)cc1OC,5
COc1ccc(C2c3c(-c4ccccc4)n[nH]c3C(=O)N2c2ccc(C(=O)O)cc2)cc1 (stereo not given),17
COc1ccc(NS(=O)(=O)c2ccc(N3CCOCC3)c(NC(=O)c3ccccc3Cl)c2)cc1,4
COc1ccc(Cl)cc1Nc1cc(C)nc2nc(C)nn12,5
COCCn1c(-c2ccc(Cl)cc2)cnc1SCC(=O)NCCc1ccc(OC)c(OC)c1,10
COc1ccc(NC(=O)c2ccccc2SC)cc1,4
COc1ccc2c(c1)NC(C)(C)C=C2C,14
CCN(CC)S(=O)(=O)c1ccc(OC)c(NC(=S)Nc2cccc(C)c2)c1,7
CCOC(=O)c1c(C)[nH]c(C(=O)COC(=O)/C=C/c2ccc(OCC#N)c(OC)c2)c1C,11
COc1ccc(Cc2nnc(N/N=C(\C)c3ccccc3)[nH]c2=O)cc1OC,18
COc1cc(/C=N/NC(=O)c2ccoc2C)ccc1O,8
COc1cccc(/C=N/N2CCOCC2)c1O,13
COc1ccc(Cl)cc1NC(=S)NNC(=O)C1(C)CC1(Cl)Cl (stereo not given),9
COc1cc(NC(=O)C(=O)NNC(=O)C2CCCCC2)c(OC)cc1Cl,11
COc1ccc(C(=O)NNC2=NC(C)(C)Cc3ccccc32)cc1,-11
